PrP UTR inh = inhibition of PrP 5' UTR reporter expression | 0.35% of 340,000 active | cell-based PrP 5' UTR mRNA reporter, plate reader | AID 488862, 2010 | inhibition, % (no concentration beside the values);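 active = every replicate at 50% or more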;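 also: 0 = median of the neutral control wells; tested in H4 reporter cells; numbers are from one replicate; inactives centre near -14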
Sa RN4220 lethal = growth inhibition of S. aureus RN4220, primary screen, OD600; inhibition, % (concentration not given with the values); AID 1259311, 2017; 16 h; 0.33% of 330,000 active;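 active = z-score of -3 or lower and OD600 up to 0.18 on both plates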;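 also: plate controls were untreated cells for no effect and reference antibiotic for full effect; stock transfer was 100 nL into about 80 µL; one replicate is shown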
ugtP null kill = growth inhibition of ugtP-null S. aureus, primary screen, RN4220 ugtP deletion, OD600. 16 h; some inactives read as strong as hits. growth inhibition, % (test concentration not listed). 0.54% of 330,000 active. AID 1259309, 2017;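 active = z-score under -3 and OD600 up to 0.15 on both plates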;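 also: plate controls were untreated wells for no effect and antibiotic for full effect; wells of about 80 µL received 100 nL stock; the first replicate is given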
Autofluor counter = compound fluorescence in toxin protease inhibitor counterscreen; 3.1% of 360,000 active; compound autofluorescence counterscreen, microsphere flow cytometry; hits give high values; AID 624483; fluorescence intensity (test concentration not listed);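 active = at least 3 SD above the mean of all compounds, about 16000 in these data; inconclusive = too few beads counted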;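 also: 100 nL of 1 mM stock went into each well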
Mtb hypoxia inh = PubChem AID 1159583; M. tuberculosis hypoxia-regulated fluorescent reporter, fluorescence; fluorescence inhibition, % (test concentration not listed); 0.1% of 300,000 active;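 active = 35 to 45% if threefold the growth effect, above 45% if 1.5-fold the growth effect; inactive = the rest, general growth blockers included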;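 also: wells of about 50 µL received 100 nL stock; 0% = vehicle wells and 100% = reference inhibitor wells; whole bacteria with a GFP reporter of the hypoxia response; strong numbers were not always called active; many hits fall short of the cut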
BJeLR viability = MLPCN primary cell-based screen for lethality selective to Ras in HRASV12 cells; BJeLR (HRASV12) viability, CellTiter-Glo ATP luminescence, 48 h; reference of the scale not given here; inhibition, % (concentration not given with the values); 0.17% of 300,000 active;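 active = replicate mean above 50%; inconclusive = above 50% but judged a plate artefact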;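 also: 50 nL library stock added to about 25 µL; numbers are from one replicate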
Mtb hypoxia inh growth = recorded beside Mtb hypoxia inh, whose call it bears; growth inhibition, %; measured here: M. tuberculosis growth (absorbance);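 0% = vehicle and 100% = reference antibiotic; read after six days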
* marks the source's active call; other numbers are inactive results; ? = inconclusive; . = no result given. The order is random (roughly 4% active in at least one column).

SMILES | PrP UTR inh | Sa RN4220 lethal | ugtP null kill | Autofluor counter | Mtb hypoxia inh | Mtb hypoxia inh growth | BJeLR viability
COc1cc(/C=C/C(=O)O)cc(S(=O)(=O)NCC2CCCO2)c1OC (stereo not drawn) | 2 | 2.2 | -7 | 4850 | -9 | -7 | -7
Cc1ccc(COc2coc(CN3CCN(C(=O)c4ccco4)CC3)cc2=O)cc1 | -9 | 4.1 | 6 | ? | 15 | 5 | 13
S=C(c1ccc(-c2ccc(Cl)cc2)o1)N1CCCCC1 | -78 | 5.9 | -1 | 10094 | 18 | 27 | 4
CCCOc1ccc(OCCNC2CCCC2)cc1 | -31 | 0.6 | 24 | 20118* | 7 | 2 | 3
COC(=O)c1cc(S(=O)(=O)Nc2nn(C)c3cccc(F)c23)oc1C | -8 | 1.4 | 6 | 5605 | 5 | 2 | -6
COc1cccc(C(=O)NCC(c2cccnc2)N2CCN(c3ccccc3OC)CC2)c1 (stereo not drawn) | -11 | -12 | -3 | 7088 | 6 | 10 | 10
O=C1c2ccccc2C(Nc2ccccc2F)N1c1cccnc1 (stereo not drawn) | -14 | -2.0 | 3 | 4428 | 9 | 6 | 7
O=C(CCNS(=O)(=O)c1ccc(OC(F)(F)F)cc1)N1CCCC1 | -14 | 0.4 | 1 | 4892 | 3 | 2 | .
CCOC(=O)C1CCN(C(=O)Nc2ccc3nc(-c4ccco4)c(-c4ccco4)nc3c2)CC1 | -11 | -2.2 | -4 | 2814 | 9 | 4 | -8
COc1cccc(N2CCN(c3ccc4nnc(CCC(=O)Nc5ccccn5)n4n3)CC2)c1 | -13 | 2.8 | 2 | 5958 | 13 | 1 | 0
CSc1nc2ccc(NC(=O)COc3ccccc3F)cc2s1 | -25 | 2.1 | -3 | 2908 | -6 | 1 | .
CCOC(=O)[C@@H]1[C@H]2COc3ccc(Br)cc3[C@H]2N2C(=O)N(c3ccc(OC)cc3)C(=O)[C@]12C | 20 | -11 | -10 | 3724 | 9 | 3 | .
Cc1ccc(C)c(S(=O)(=O)N2CCCOC2CNC(=O)C(=O)NCCC2=CCCCC2)c1 (stereo not drawn) | -21 | -0.1 | 1 | 2468 | 0 | 1 | -2
O=C1CC(c2ccccc2)CC(O)=C1C=NCCN1CCN(Cc2ccccc2)CC1 (stereo not drawn) | -17 | 3.0 | 6 | 5835 | 2 | 9 | 5
CC(C(c1cccs1)c1c(N)n(C)c(=O)n(C)c1=O)[N+](=O)[O-] (stereo not drawn) | -39 | 4.6 | 5 | . | 7 | 4 | -10
CCOC(=O)c1cc(CC)sc1NC(=O)CC1Sc2ccc(C(F)(F)F)cc2NC1=O (stereo not drawn) | -14 | 5.0 | 8 | 2579 | -2 | -1 | 9
COc1ccc(C(=O)Nc2ccc(N3CCOCC3)cc2)cc1S(=O)(=O)N1CCOCC1 | -8 | 1.6 | 1 | ? | -10 | 1 | .
Cc1cc(C)cc(NC(=O)c2nnn(Cc3cc(C)ccc3C)c2N)c1 | -4 | -6.4 | 27 | 6421 | . | . | -2
FC(F)(F)c1cccc(NC(=S)N2CCN(c3ccccn3)CC2)c1 | -19 | 2.1 | 5 | 2782 | 16 | 11 | -8
COc1ccc(NS(=O)(=O)c2cc(NC(=O)c3ccco3)ccc2N2CCCCC2)cc1 | 7 | 6.3 | -8 | 2057 | 5 | 3 | -3

Some of the entries so far, as labelled records:
> CCOC(=O)[C@@H]1[C@H]2COc3ccc(Br)cc3[C@H]2N2C(=O)N(c3ccc(OC)cc3)C(=O)[C@]12C
  PrP UTR inh: 20; Sa RN4220 lethal: -11; ugtP null kill: -10; Autofluor counter: 3724; Mtb hypoxia inh: 9; Mtb hypoxia inh growth: 3; BJeLR viability: .
> COc1cccc(N2CCN(c3ccc4nnc(CCC(=O)Nc5ccccn5)n4n3)CC2)c1
  PrP UTR inh: -13; Sa RN4220 lethal: 2.8; ugtP null kill: 2; Autofluor counter: 5958; Mtb hypoxia inh: 13; Mtb hypoxia inh growth: 1; BJeLR viability: 0
> CC(C(c1cccs1)c1c(N)n(C)c(=O)n(C)c1=O)[N+](=O)[O-] (stereo not drawn)
  PrP UTR inh: -39; Sa RN4220 lethal: 4.6; ugtP null kill: 5; Autofluor counter: .; Mtb hypoxia inh: 7; Mtb hypoxia inh growth: 4; BJeLR viability: -10
> O=C1c2ccccc2C(Nc2ccccc2F)N1c1cccnc1 (stereo not drawn)
  PrP UTR inh: -14; Sa RN4220 lethal: -2.0; ugtP null kill: 3; Autofluor counter: 4428; Mtb hypoxia inh: 9; Mtb hypoxia inh growth: 6; BJeLR viability: 7

(further entries)
SMILES | PrP UTR inh | Sa RN4220 lethal | ugtP null kill | Autofluor counter | Mtb hypoxia inh | Mtb hypoxia inh growth | BJeLR viability
COc1cccc(C(=O)C2CCCN(Cc3cccc4c3OCO4)C2)c1 (stereo not drawn) | 1 | 1.2 | -2 | 2715 | 1 | -7 | -7
COc1ccc(CCNc2ncnc3c2oc2ccccc23)cc1OC | -17 | 17 | -2 | 8189 | 14 | 12 | 2
CCOc1ccc(CNS(=O)(=O)c2c(C)nc3sccn3c2=O)cc1OC | -36 | 1.6 | 5 | 6422 | 7 | 10 | 5
CCCn1c(=O)c(C(=O)NCc2ccco2)c(O)c2ccccc21 | -57 | 8.8 | 5 | 4463 | 14 | 12 | -1
CC(/C=C/c1ccccc1)=NNC(=O)c1cnccn1 | . | 5.2 | 1 | . | 1 | -1 | .
Cc1cccc(C(=O)N/N=C/c2ccc(OCC(=O)N3CCCCC3)cc2)c1 | -16 | . | . | 6634 | . | . | -1
Cc1cc(C(=O)OCC(=O)NCc2ccc(Cl)cc2Cl)c(C)o1 | -14 | 4.9 | 5 | 3899 | 23 | 9 | .
CC(=O)Nc1ccc(NC(=O)C2CCCCN2S(=O)(=O)c2ccc(C(C)(C)C)cc2)cc1 (stereo not drawn) | 7 | 3.1 | -2 | 3837 | -12 | 12 | 0
O=C(/C=C/c1cccs1)c1ccc(Br)cc1 | -11 | . | . | 2456 | . | . | -5
COc1cccc(CNC(=O)CNC(=O)N2CC(=O)Nc3ccccc32)c1 | -3 | -2.4 | -5 | 5766 | -19 | -8 | -1
COc1ccc(CCC(=O)OCC(=O)N(C)c2c(N)n(Cc3ccccc3)c(=O)[nH]c2=O)cc1 | 0 | 0.8 | 9 | ? | 2 | 3 | 6
C/C(=N/NS(=O)(=O)c1ccc(Cl)cc1)c1ccncc1 | -5 | . | . | 3941 | . | . | 2
COc1ccc(S(=O)(=O)NCc2cccnc2)cc1NC(=O)c1ccc(Cl)cc1 | -19 | 10 | 5 | ? | 7 | -2 | 1
CC(=O)c1cccc(NC(=O)C2C3C=CC(C3=C(c3ccccc3)c3ccccc3)C2C(=O)O)c1 (stereo not drawn) | -22 | 0.8 | 7 | 4363 | -1 | 9 | .
O=c1ccc2cc(S(=O)(=O)N3CCN(c4ccccc4)CC3)ccc2[nH]1 | -14 | 12 | 6 | 6328 | -3 | 5 | 1
CCOc1ccc(-n2c(=O)c3sccc3n(CC(=O)NCc3ccco3)c2=O)cc1 | -3 | -1.7 | 2 | 19457* | -4 | -2 | 7
CC1(C)CCc2cc(CN3CCN(c4ccccn4)CC3)ccc2O1 | -16 | 2.5 | 5 | 3934 | 7 | 8 | -7
CC1(C)CC(=O)c2sc(NS(=O)(=O)Cc3ccccc3)nc2C1 | -27 | 3.4 | -2 | 22981* | 9 | 11 | 2
CC(=O)Nc1ccc(C(=O)OCC(=O)NCc2ccc3c(c2)OCO3)cc1 | -3 | 3.2 | 2 | 4309 | -4 | 8 | .
O=C(CSc1ccccc1)Nc1ccc(S(=O)(=O)Nc2ncccn2)cc1 | 8 | 2.9 | 13 | 4735 | 13 | 13 | -1
O=C1CCCN1CCCNc1ccc2nnc(CCC(=O)N3CCN(c4ccccc4)CC3)n2n1 | -7 | 2.7 | 7 | 5824 | 3 | 9 | -5
O=C(NCc1cccnc1)c1cccc(NC(=O)c2ccco2)c1 | -6 | 0.5 | -2 | 3316 | -3 | 8 | -2
COc1cc(C(c2c(C)[nH][nH]c2=O)c2c(C)[nH][nH]c2=O)ccc1OS(=O)(=O)c1ccc(C)cc1 | -7 | 0.3 | 5 | 4330 | 4 | 2 | 3
COc1ccc(NC(=O)CN(C)C(=O)C2=NN(c3ccccc3)C(=O)CC2)cc1 | -21 | 2.6 | 3 | 8661 | 12 | 8 | .
Cn1c(=O)c(C(=O)CN2CCCCC2)c(N)n(Cc2ccccc2)c1=O | -22 | 2.1 | 3 | 4463 | -7 | 2 | 4
Cc1nc2ccccc2c(C)c1CC(=O)N(C)CC(=O)Nc1cccc(F)c1 | -19 | 4.6 | 6 | 6926 | 7 | 2 | -4
COc1ccc(CCNC(=O)CCCCCNc2nc(=S)[nH]c3ccccc23)cc1OC | -14 | 8.2 | 1 | 9694 | -1 | 13 | -3
Cc1cc(NC(=O)CS(=O)(=O)Cc2ccccc2)no1 | -11 | 3.0 | 2 | 2431 | 6 | 8 | 1
CC1=CC(=O)CC(C)(C)[C@@]1(O)/C=C/[C@@H](C)O[C@@H]1O[C@H](CO)[C@@H](O)[C@H](O)[C@H]1O | -23 | 1.5 | 8 | 4210 | . | . | .
O=C(O)c1ccc(N/N=C/c2cccc(C(F)(F)F)c2)cc1 | -72 | . | . | 3130 | . | . | 4

Profiles as entered above. Values in the order: PrP UTR inh	Sa RN4220 lethal	ugtP null kill	Autofluor counter	Mtb hypoxia inh	Mtb hypoxia inh growth	BJeLR viability
`O=C(CSc1ccccc1)Nc1ccc(S(=O)(=O)Nc2ncccn2)cc1` as listed: 8	2.9	13	4735	13	13	-1
`Cc1ccc(C)c(S(=O)(=O)N2CCCOC2CNC(=O)C(=O)NCCC2=CCCCC2)c1` (stereo not drawn) as listed: -21	-0.1	1	2468	0	1	-2
`CCOC(=O)C1CCN(C(=O)Nc2ccc3nc(-c4ccco4)c(-c4ccco4)nc3c2)CC1` as listed: -11	-2.2	-4	2814	9	4	-8
`COc1ccc(CCNc2ncnc3c2oc2ccccc23)cc1OC` as listed: -17	17	-2	8189	14	12	2

(listing goes on)
SMILES | PrP UTR inh | Sa RN4220 lethal | ugtP null kill | Autofluor counter | Mtb hypoxia inh | Mtb hypoxia inh growth | BJeLR viability
Cc1ccnc(SC2CC(=O)N(c3ccc(Cl)cc3)C2=O)n1 (stereo not drawn) | 2 | 6.0 | 5 | 3056 | 7 | 2 | 8
Cc1cccc(C)c1-n1c(SCC(=O)NCc2ccco2)nc2ccccc2c1=O | -16 | 2.2 | 0 | 2444 | . | . | 2
CC(C)(C)NC(=O)NC(=O)CN1CCN(Cc2ccccc2)CC1 | -7 | 2.1 | 0 | 4227 | 1 | 3 | -5
CC(C)CC(=O)Nc1nnc(CCc2ccccc2)s1 | -153 | 8.2 | 4 | 3857 | 4 | 3 | 0
Cc1ccccc1CSc1ccc(S(=O)(=O)N2CCCC2)cn1 | -30 | 4.3 | 17 | 3412 | 12 | 9 | .
COc1ccc(OCC(=O)N2CCN(S(=O)(=O)c3ccc(Cl)cc3)CC2)cc1 | -9 | 0.4 | -1 | 6219 | 5 | 10 | -12
CCN(CC)CCN1C(=O)C(=O)/C(=C(/O)c2ccc(OC(C)C)cc2)C1c1ccncc1 (stereo not drawn) | -18 | 1.7 | 1 | 2650 | . | . | 9
CCOc1ccc(-c2cn(-c3cccc(SC)c3)c(=O)[nH]2)cc1 | -22 | 2.0 | -1 | 2591 | -4 | 12 | -3
O=C(Cc1ccc(S(=O)(=O)N2CCOCC2)s1)N1CCN(S(=O)(=O)c2ccccc2F)CC1 | -11 | 1.6 | 7 | 2996 | 6 | 2 | .
CCOC(=O)N1CCC(NC(=O)CN2C(=O)COc3ccc(C(C)(C)C)cc32)CC1 | -8 | 4.2 | 7 | 11570 | 6 | 5 | -4
COc1ccc(N(C(=O)C(C)C)S(=O)(=O)c2cccc([N+](=O)[O-])c2)cc1 | -10 | 2.7 | 7 | 2515 | 4 | 2 | -5
Cc1ccc(CSCCNS(=O)(=O)c2ccc(C)cc2)cc1 | -24 | 5.8 | -8 | 2129 | 10 | 3 | -1
CCCC1CCC(c2ccc(/C(N)=N/O)cc2)CC1 (stereo not drawn) | -12 | -4.3 | 70 | 4504 | 5 | 10 | 2

Some values from the entries so far:
Value of Cc1ccnc(SC2CC(=O)N(c3ccc(Cl)cc3)C2=O)n1 (stereo not drawn) under BJeLR viability: 8
Value of CCCC1CCC(c2ccc(/C(N)=N/O)cc2)CC1 (stereo not drawn) under Sa RN4220 lethal: -4.3
